NPYLR7 ag – agonists of mosquito NPYLR7 receptor, primary screen, cell-based, Aedes aegypti, calcium fluorescence, mosquito biting behavior. Aedes aegypti neuropeptide Y-like receptor 7 (NPYLR7). HEK293T NPYLR7/Galpha15, GCaMP6s calcium fluorescence. activation, % at 10 µM. AID 1259423, 2018. 0.15% of 270,000 active; in the data active = activation above about 40%;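 note: 0% = vehicle and 100% = reference agonist at the receptor; some compounds past the cut are filed as inactive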
NPYLR7 ag max-min – further read-out of NPYLR7 ag, marked with its call; activation, %; measured here: Max-Min RFU normalised activation; some inactives read as strong as hits;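 span of the calcium signal over five minutes; 0% = vehicle and 100% = native peptide agonist; compound fluorescence can raise it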
The depositor's hits bear a star; & = joins results of further samples.

The opening 3 compounds, ahead of the listing:
canonical_smiles,NPYLR7 ag,NPYLR7 ag max-min
COC(=O)C1=NNC2C(=O)N(c3ccc(Br)cc3)C(=O)C12 (centres undefined),9,3
Cn1ccnc1SCc1cc(=O)c(OC(=O)c2cccs2)co1,-2,-5
CC#CCN1CCC=C(CN(C)C(=O)/C=C/c2ccccc2)C1,2,-1

The listing (from the top)
canonical_smiles,NPYLR7 ag,NPYLR7 ag max-min
COC(=O)C1=NNC2C(=O)N(c3ccc(Br)cc3)C(=O)C12 (centres undefined),9,3
Cn1ccnc1SCc1cc(=O)c(OC(=O)c2cccs2)co1,-2,-5
CC#CCN1CCC=C(CN(C)C(=O)/C=C/c2ccccc2)C1,2,-1
CN(C)c1ccc(N)cc1CN(Cc1ccco1)C(=O)c1ccccc1Cl,-1,-3
O=c1c2cnc3nc(-c4ccccc4)nn3c2ccn1CCN1CCOCC1,3,7
CC1Cc2ccccc2N1Cc1cc(=O)c(OCC(=O)NCc2ccc(F)cc2)co1 (centres undefined),1,20
Cc1noc(-c2cccc(F)c2)c1C(=O)NCCc1cccc(Cl)c1,0,2
CCOC(=O)C1CCCN(C(=O)c2coc(CN(Cc3ccc(F)cc3)Cc3ccc(OCC)cc3)n2)C1 (centres undefined),14,16
CC1CN(Cc2nc3c(F)cccc3[nH]2)CCN1Cc1nccn1C (centres undefined),0,-1
COc1ccc2nc(CNC(=O)c3ccc(C4CCCO4)s3)[nH]c2c1 (centres undefined),-2,-5

The list continues.
canonical_smiles,NPYLR7 ag,NPYLR7 ag max-min
CC(C)(Nc1ccccc1)C(=O)NC1CC(=O)N(C2CCCCCC2)C1 (centres undefined),12,7
CN(C(=O)Cc1cccs1)C1CCN(c2ccccc2F)C1=O (centres undefined),-7,560
CCc1ccccc1-n1cnnc1SCC(=O)O,0,11
O=C(CSc1ncnc2c1nnn2Cc1ccccc1F)N1CCN(c2ccccc2)CC1,7,15
CC(C)Oc1ccc(C(=O)NCc2nnnn2-c2ccc(Cl)cc2)cc1,-2,-4
CCN(CC)C(=O)Oc1ccc2c(ccn2Cc2ccc(F)cc2)c1NC(=O)c1ccc(Cl)c(Cl)c1,4,1
CN(Cc1ccccc1)C(=O)[C@H](Cc1ccc2ccccc2c1)NC(=O)[C@@H]1CCCN1C(=O)Nc1ccccc1[N+](=O)[O-],-11,-17
COc1cc2c(cc1OC)C(c1c(F)cccc1Cl)N(C(=O)Nc1cc(F)ccc1F)CC2 (centres undefined),4,-2
COc1ccc(NC(=O)COCc2nc3ccccc3s2)cc1S(=O)(=O)N1CCCCC1,-3,-1
S=C(NNc1ccnc2cc(Cl)ccc12)NC1CCCCC1,4,2

Further records
canonical_smiles,NPYLR7 ag,NPYLR7 ag max-min
CCCCNC(=O)C1(C)CCN1Cc1ccc2c(c1)OCCO2 (centres undefined),7,-1
Cc1cc(C)c2c3c([nH]c2c1)CCC(NC(=O)CC1C=CCC1)C3 (centres undefined),23,16
Cc1ccccc1Cn1c(N2CCN(Cc3ccccc3)CC2)nc2c1c(=O)[nH]c(=O)n2C,8,9
C[C@H]1CC2C([C@@H](O)C[C@@]3(C)C2CC[C@]3(O)C(=O)CO)[C@@]2(C)C=CC(=O)C=C12 (some centres undefined),-4,-10
Cc1cc2c(cc1F)C(=O)NC(c1ccn[nH]1)N2 (centres undefined),-7,-8
Cn1nnnc1N1CCC(NC(=O)/C=C/c2c(F)cccc2F)CC1,0,-1
CC(C)(C)c1cc(C2CC(=O)Nc3cc4[nH]ncc4cc32)[nH]n1 (centres undefined),1,-5
O=c1ccc(-c2ccco2)nn1Cc1cccnc1,2,-2
CC(C)(C)n1nc2c(c1NC(=O)c1ccc(Br)o1)CS(=O)(=O)C2,2,1
O=C(NCC1CCCN(Cc2nc3ccccc3s2)C1)c1n[nH]c2ccccc12 (centres undefined),8,4

Continued:
canonical_smiles,NPYLR7 ag,NPYLR7 ag max-min
S=c1nc(/C=C/c2ccccc2)[nH]n1CN1CCCC1c1cccnc1 (centres undefined),3,-1
O=C1c2cccc([N+](=O)[O-])c2C(=O)N1CCc1c[nH]c2ccccc12,0,-10
COCc1cc(N2CCC(NC(=O)C(C)C)CC2)nc(C(C)(C)C)n1,8,6
COCC1(C(=O)N2CCN(CCc3ccncc3)CC2)CCC1,15,6
CONC(=O)c1cc(C(C)C)ccc1O,3,2
Cc1nc2nc(=S)[nH]n2c(C)c1CCC(=O)NCC(c1ccc(F)cc1)N1CCOCC1 (centres undefined),16,21
O=C1CN(CCSc2ccc(Cl)cc2)CCN1,2,6
CC(=O)c1ccc(C(=O)Nc2nc(-c3ccc(C)c(C)c3)cs2)cc1,8,6
O=C(CN(C(=O)c1cc(C(F)(F)F)cc(C(F)(F)F)c1)C1CCCCC1)N(Cc1ccc(F)cc1)Cc1cccs1,16,21
Cc1ccc(Cn2cnc3c(cnn3CCNC(=O)c3ccc(C)cc3)c2=O)cc1,-2,-7

Other results.
canonical_smiles,NPYLR7 ag,NPYLR7 ag max-min
c1ccc(CC/C(=N/Nc2nc(-c3ccccc3)cc(-c3ccccc3)n2)c2ccccc2)cc1,-6,-11
Cc1ccc2nc(C)c(NC(=O)Cc3ccccc3)c(=O)n2c1,2,1
O=C(Nc1ccc(OC(F)(F)F)cc1)N1CCc2nc(Nc3cc(Cl)cc(Cl)c3)ncc2C1,-4,-6
O=C(c1cnc(-c2cccnc2)nc1)N1CCCC(Oc2ccc(F)cc2)C1 (centres undefined),-6,-8
Cc1nc(NC(=O)C2=NN(Cc3ccccc3)C(=O)CC2)sc1C,11,7
Cc1[nH]c2ccccc2c1C(=O)NCCc1ccccc1,-5,-6
Cc1ccc(CN(CCc2ccccc2)C(=O)CN(CCN2CCCCC2)C(=O)NC(C)(C)C)o1,12,20
Cc1cccc(-c2ccc(NC(=O)C3CCN(C(=O)CCc4cnn(C)c4)CC3)cc2)c1,14&0,4&-1
Cc1ccc(OCc2cccc(C#N)c2)c([N+](=O)[O-])n1,2,2
COC(=O)c1[nH]ncc1CN1CCC(N2CCCC2=O)CC1,-1,-3

(next part)
canonical_smiles,NPYLR7 ag,NPYLR7 ag max-min
CCOCCn1c(=O)c2c(nc3n(CCOCC)c(C)c(C)n23)n(C)c1=O,7,11
COCCCN1C(=O)C(=Cc2ccc(C)o2)SC1=S,18,15
CCOC(=O)C1CCCN(C(=O)c2csc(CSc3nnc(Cc4ccccc4)n3-c3ccccc3OC)n2)C1 (centres undefined),8,6
CN(C)S(=O)(=O)NCC1CC(=O)N(c2ccccc2)C1 (centres undefined),1,1
CCCC(=O)Nc1sc2c(c1C(N)=O)CCC2,2,2
CCOc1ccccc1NC(=O)c1cc(Cl)cc(Cl)c1,-22,-23
O=C(C1CC(Cc2ccc(F)cc2)=NO1)N1CCCC(COc2ccccc2F)C1 (centres undefined),26,9
COCCN1C(=O)N(Cc2cccc3ccccc23)C(=O)C12CCN(C1Cc3ccccc3C1)CC2,16,1
O=C(OCc1nnc(C2CC2)o1)c1cc2c(s1)CCCCCC2,-2,19
O=C(Nc1ccccc1N1CCOCC1)c1cc(Cl)c2c(c1)OCO2,7,5

(further entries)
canonical_smiles,NPYLR7 ag,NPYLR7 ag max-min
COc1ccccc1C(=O)NC1(C(F)(F)F)NC(=O)N(CCc2ccccc2)C1=O (centres undefined),-12,-14
OCc1ccc(-c2nccn2Cc2cccc(-n3cccn3)c2)o1,4,-4
COc1cc(OC)cc(C(=O)N2CCN(c3nccc(-c4ccc(N5CCOCC5)cc4)n3)CC2)c1,10,22
CCOC(=O)c1cc(-c2cccc(NC(=O)c3cc(OC)cc(OC)c3)c2)n(-c2ccccn2)n1,10,5
O=C(C=Cc1cccs1)NCc1ccc2c(c1)OCO2,17,13
NC(=O)[C@H](Cc1c[nH]c2ccccc12)NC(=O)C1CC=CCC1C(=O)N1CCc2c([nH]c3ccccc23)C1 (some centres undefined),-7,-16
COc1ccc2nc(-c3cccc(NC(=O)Nc4ccc(OC)c(OC)c4)c3)cn2n1,-1,-1
CCC(=O)Nc1nn(CC)c2nc3ccc(C)cc3cc12,-2,-2
Cc1nc2c(=O)n(CC(N)=O)nc(-c3cccs3)c2s1,4,0
COc1ccc(CNC(=O)c2sc(=O)n(Cc3ccc(-c4ccccc4)cc3)c2C)cc1,11,4

(more compounds)
canonical_smiles,NPYLR7 ag,NPYLR7 ag max-min
CCn1c(=NC(=O)CCS(=O)(=O)c2ccc(F)cc2)sc2cc(OC)ccc21,2,-2
COc1ccc(OC2CCN(C(C)=O)CC2)c(C(=O)NCCc2cscn2)c1,0,-2
O=c1/c(=C\c2ccc(F)cc2)sc2nc(-c3ccccc3)nn12,-11,-16
OCC1CCN(Cc2ccc3n2CCCN=C3C2CCC2)CC1,16,5
CC(=O)c1ccc(S(=O)(=O)N(C2CCCC2)C2CC2)cc1,-4,-2
COCCN1C(=O)COCc2cc(-c3cccnc3)ccc21,5,3
O=C(O)c1ccccc1OS(=O)(=O)c1ccc(Cl)s1,14,6
CN(C)CCN(Cc1cccnc1)C(=O)/C=C/c1nccs1,-1,6
NC(=S)c1ccc(Br)cc1,-1,4
O=C(c1ccccc1Cl)N1CCC(CN2C(=O)CSC2c2ccc(C(F)(F)F)cc2)CC1 (centres undefined),-1,7

Rewritten with values under each structure: 6 of the compounds above.
Results follow in this order: NPYLR7 ag | NPYLR7 ag max-min
- CC(=O)c1ccc(S(=O)(=O)N(C2CCCC2)C2CC2)cc1
→ -4 | -2
- COCCN1C(=O)COCc2cc(-c3cccnc3)ccc21
→ 5 | 3
- O=C(O)c1ccccc1OS(=O)(=O)c1ccc(Cl)s1
→ 14 | 6
- CN(C)CCN(Cc1cccnc1)C(=O)/C=C/c1nccs1
→ -1 | 6
- NC(=S)c1ccc(Br)cc1
→ -1 | 4
- O=C(c1ccccc1Cl)N1CCC(CN2C(=O)CSC2c2ccc(C(F)(F)F)cc2)CC1 (centres undefined)
→ -1 | 7

Other structures follow:
canonical_smiles,NPYLR7 ag,NPYLR7 ag max-min
CN(Cc1cccc(NC(=O)C(C)(C)C)c1)C(=O)C(F)(F)F,0,0
CCCOc1ccc(C2C(C(=O)OC)=C(C)N(C)C(C)=C2C(=O)OC)cc1,-5,-4
CO[C@H]1CN(c2nnnn2-c2ccc(-c3ccccc3)cc2)CC[C@H]1N,-1,3
CC(=O)OCC(=O)[C@@]1(O)CCC2C3C[C@H](C)C4=CC(=O)C=CC4(C)C3[C@@H](O)CC21C (some centres undefined),-9,-14
COc1ccc2oc(=O)n(C3CCN(C(=O)CCSC)CC3)c2c1,-9,5
COc1ccc(NC(=O)CSc2nnc(CNC(=O)c3cccs3)n2-c2ccccc2OC)cc1,8,11
CCn1c(SCC(=O)N2CCCC2)nc2cc(S(N)(=O)=O)ccc21,12,7
CCN(Cc1nc(COC)no1)C(=O)c1cc2ccccc2s1,2,-1
CCc1nc2n(n1)C(=O)C(C(c1ccc(OC)cc1)N1CCN(C)CC1)S2 (centres undefined),-6,-8
CCCCCCCCS(=O)(=O)N1CCC2(CC1)NC(=O)c1cc(C)ccc1N2,3,16

Looked up above:
NPYLR7 ag result of `COc1ccc(NC(=O)CSc2nnc(CNC(=O)c3cccs3)n2-c2ccccc2OC)cc1` = 8
NPYLR7 ag result of `CCc1nc2n(n1)C(=O)C(C(c1ccc(OC)cc1)N1CCN(C)CC1)S2` (centres undefined) = -6

Next part.
canonical_smiles,NPYLR7 ag,NPYLR7 ag max-min
CN1C(C)(C)CC(NC(=O)c2cc(F)c(-n3ccnc3-c3ccccc3)cc2F)CC1(C)C,11,7
Cc1cc(C)n(CC(=O)N2CCC(CCC(=O)NCC3CCCO3)CC2)n1 (centres undefined),12,8
O=C1CCC(C2CCC(=O)CC2)CC1,4,3
Cc1noc(C)c1C(=O)NC1CCCCC1Cc1ccco1 (centres undefined),-22,-21
CC1=[N+]([O-])C(C)(C)C(c2ccc(C)o2)=[N+]1[O-],1,-6
COc1ccc(N2C(=O)CSC2c2cccc(NC(=O)c3ccc4c(c3)OCO4)c2)cc1 (centres undefined),7,6
Cc1ccc(NC(=O)c2ccc(Cl)c(S(N)(=O)=O)c2)cc1,-2,-4
CC(Cc1cn(Cc2ccoc2)nn1)c1ccccc1 (centres undefined),0,1
COCC(=O)N(Cc1ccco1)Cc1cc(NC(=O)C2CCCC2)ccc1N(C)C,1,8
CN1CCC(CN2CCC(CNC(=O)C3CCCCC3)C2)CC1 (centres undefined),31,20

Later entries
canonical_smiles,NPYLR7 ag,NPYLR7 ag max-min
COc1ccc(-c2cc(C3CC3)nc(SCC(=O)c3cccs3)c2C#N)cc1,-6,-11
O=C(Nc1ccc2c(c1)CN(Cc1ccc3c(c1)OCCO3)CC2)C1CCCO1 (centres undefined),6,1
CC(C)CCn1c(SC(C)C)nc2c1c(=O)[nH]c(=O)n2C,-4,-3
COc1ccc2cc(C(=O)C3CCCN(C(=O)CCC(=O)c4ccc(F)cc4)C3)ccc2c1 (centres undefined),0,-2
Cn1c(=NC(=O)CCS(=O)(=O)c2ccc(Cl)cc2)sc2ccccc21,3,-2
Cc1ccccc1-c1nc(SCC(=O)N2CCCc3ccccc32)c2c(=O)n(C)c(=O)n(C)c2n1,-8,-12
CC(c1ccc(-n2cncn2)cc1)N(C)Cc1cc(F)cc2cccnc12 (centres undefined),0,11
CN1CCN(C(=O)c2coc(CN(Cc3cccc(C(F)(F)F)c3)Cc3ccc(Cl)cc3Cl)n2)CC1,6,6
Cc1c(Cl)cc(C(=O)N2CCCC(N(C)CCN(C)C)C2)cc1Cl (centres undefined),2,2
Cc1cc(Cl)ccc1NS(=O)(=O)c1ccc2c(c1)NC(=O)CC(=O)N2,6,8
CC(C)C(C)N(Cc1cc(NC(=O)C2CCC2)ccc1N(C)C)C(=O)c1ccccc1Cl (centres undefined),8,8
COc1cccc(CC2(CO)CCCN(Cc3ccc4c(c3)OCCO4)C2)c1 (centres undefined),4,-1
c1cncc(COC2CCCN(c3nccc(C4CCCC4)n3)C2)c1 (centres undefined),-6,-7

Screening data: PubChem BioAssay, Fisher Drug Discovery Resource Center

A portion of the library; the hit share may differ from the screen's.
